UCH37 DUB inh = human UCH37 deubiquitinating enzyme inhibition; Q9Y5K5; inhibition, % (test concentration not listed); 330,000 tested, 0.33% active; purified proteasome/UCH37, Ub-AMC cleavage fluorescence; AID 588478;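 active = mean of two replicates above 20%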;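 also: 0% = compound-free wells with enzyme and 100% = wells lacking proteasome; stock transfer was 100 nL into about 20 µL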
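Schedule: 30 min plus 25 min, room temperature / Material: human UCH37 within purified proteasomes / Technique: AMC fluorescence intensity at 355/460 nm / Buffer or medium: pH 7.4 Tris-HCl (50 mM) with ovalbumin, ATP-MgCl2, DTT / Controls: wells without proteasome as full block, compound-free enzyme plus substrate as uninhibited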
Vif TR-FRET = inhibitors of Vif binding to APOBEC3G peptide, primary screen, biochemical, TR-FRET, GST-Vif 1-94, biotin-A3G peptide, dose response retest (AID 1117319); TR-FRET GST-Vif / biotin-A3G peptide binding; higher % means a stronger effect; test concentration not given here; strong numbers were not always called active; inhibition, %, or IC50 in µM where a hit was titrated; 260,000 tested, 0.57% active;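 active = above the screen mean plus three standard deviations and confirmed in dose response; inconclusive = results disagree or hit not tested in dose response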;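 also: Vif residues 1-94 fused to GST binding biotinylated APOBEC3G peptide 110-148; 0% = full assay without inhibitor and 100% = GST in place of GST-Vif; retest series ran down from 100 µM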
Beta2AR agonist = activates human beta-2 adrenergic receptor causing internalization; 340,000 tested, 0.43% active; P07550; AID 504454; Am2.2-beta2AR cells, FAP receptor internalization, flow cytometry; reference of the scale not given here; response, % (test concentration not listed);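 active = response above a set limit, near 3 SD of response in nonfluorescent compounds, cut at about 42% in these data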;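 also: stock transfer was 100 nL into about 11 µL; a reference agonist was the positive control; negative values mostly stem from fluorescent compounds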
Target sequence (P07550 whole entry, looked up): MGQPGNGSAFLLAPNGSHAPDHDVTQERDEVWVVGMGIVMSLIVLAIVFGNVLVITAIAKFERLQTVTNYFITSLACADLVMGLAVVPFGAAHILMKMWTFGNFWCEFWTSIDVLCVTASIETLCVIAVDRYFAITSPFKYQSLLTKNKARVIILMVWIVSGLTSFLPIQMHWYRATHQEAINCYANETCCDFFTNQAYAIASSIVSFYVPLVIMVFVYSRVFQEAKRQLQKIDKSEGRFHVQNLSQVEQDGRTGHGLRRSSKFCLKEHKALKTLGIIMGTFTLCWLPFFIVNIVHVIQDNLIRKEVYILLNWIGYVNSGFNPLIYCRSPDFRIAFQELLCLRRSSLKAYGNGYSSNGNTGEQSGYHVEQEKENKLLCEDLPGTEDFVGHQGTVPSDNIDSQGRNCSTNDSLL
Bfl-1 A1 inh = inhibitors of the anti-apoptotic protein A1, read as caspase activation; MEF A1-2A-BIM cells, Caspase-Glo 3/7 luminescence, 3 h; percent of clofoctol response, vehicle zero; caspase activation, % (concentration not given with the values); 330,000 tested, 0.066% active; AID 2462;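 active = over half of replicate activation scores above 10%, or exactly half above 10 with the replicate mean above 10; inconclusive = replicate mean below 10 yet half the replicates above 10; inactive = over half of replicates below 10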;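 also: wells of about 30 µL received 50 nL stock; many hits fall short of the cut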
LANA-H2B inh = blocks KSHV LANA binding to histone H2A/H2B. cell-free LANA-H2A/H2B peptide, fluorescence polarization. 320,000 tested, 0.6% active. inhibition, % (no concentration beside the values). AID 2629. Q9QR71; in the data active = inhibition mostly above about 10%, no sharp cut-off; inactive = mostly below about 6.7%;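 also: stock transfer was 7.5 nL into about 10 µL; 0% = median of vehicle wells and 100% = median of positive control wells; one replicate is shown; the record names a cut of 25% in any replicate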
HNF4A DNA FP = change in binding of human HNF4 alpha to DNA; HNF4a-FITC DNA binding, fluorescence polarization, 1 h; activity change, % at 10 µM; 360,000 tested, 0.3% active; AID 1224865; in the data active = activity change above about 30%, passing the limit was not always enough;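 also: controls were the assay level and a saturating level of protein; the project sought stronger binding though the title names inhibitors; some compounds called inactive have numbers as strong as hits; positive values seem to mean higher polarization but the record does not say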
Target sequence (P41235 whole entry, looked up): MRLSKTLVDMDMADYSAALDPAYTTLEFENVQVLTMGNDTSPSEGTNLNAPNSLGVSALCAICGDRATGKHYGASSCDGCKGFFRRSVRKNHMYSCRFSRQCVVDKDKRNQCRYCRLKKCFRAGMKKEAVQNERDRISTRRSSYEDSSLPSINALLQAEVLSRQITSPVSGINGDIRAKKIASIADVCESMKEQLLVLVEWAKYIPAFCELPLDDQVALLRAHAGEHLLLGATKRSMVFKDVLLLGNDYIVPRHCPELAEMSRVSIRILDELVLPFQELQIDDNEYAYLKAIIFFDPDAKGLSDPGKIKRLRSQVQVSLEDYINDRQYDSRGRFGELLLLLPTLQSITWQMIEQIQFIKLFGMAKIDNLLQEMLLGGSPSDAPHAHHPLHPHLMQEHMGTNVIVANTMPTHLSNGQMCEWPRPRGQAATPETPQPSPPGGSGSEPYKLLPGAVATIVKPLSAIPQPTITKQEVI
Ecoli growth = inhibitors of Escherichia coli growth. OD600, 23 h; active compounds read low. OD600 absorbance (concentration not given with the values). 330,000 tested, 0.21% active;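 active = OD600 absorbance below the run mean of sample wells minus 3.6 SD, in any replicate, cut at about 0.56 in these data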;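 also: stock transfer was 300 nL into about 60 µL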
The depositor's hits bear a star; ? = inconclusive; · = no result given; & = joins results of further samples.

nr | SMILES | UCH37 DUB inh | Vif TR-FRET | Beta2AR agonist | Bfl-1 A1 inh | LANA-H2B inh | HNF4A DNA FP | Ecoli growth
1 | COc1ccc(CCNC(=O)C(=O)N/N=C/c2cccs2)cc1OC | · | -1% | -2 | -0.2 | -1.7 | -1.1 | ·
2 | Cc1ccc2cc(C)c(N3CCC(C)CC3)nc2c1 | -3.8 | · | 11 | 0.5 | 0.4 | -3.0 | 0.66
3 | O=C(O)CC(CC(=O)Nc1ccccc1C(=O)O)c1ccccc1 (stereo unspecified) | 2.7 | · | -3 | 1.1 | -0.2 | 1.7 | 0.73
4 | O=C(CSc1n[nH]c(-c2ccccc2O)n1)N1CCCc2ccccc21 | -0.7 | 4% | -14 | 0.5 | 2.7 | 22 | 0.73
5 | COc1cccc(CNCCN2CCOCC2)c1OC | -0.6 | -8% | 2 | -1.1 | -0.9 | -3.0 | 0.75
6 | O=C(CCC(=O)N1CCN(S(=O)(=O)c2ccccc2)CC1)c1cccs1 | 1.3 | 2% | 2 | -0.4 | 0.4 | 0.3 | 0.71
7 | CC(C)CN(C(=O)CC1CCCC1)c1c(N)n(Cc2ccccc2)c(=O)[nH]c1=O | -0.7 | -2% | 0 | -0.3 | 1.4 | -1.2 | 0.68
8 | CCOC(=O)c1[nH]c2ccccc2c1NC(=O)NC1CCCCC1 | -1.7 | ? | 10 | 0.4 | 1.2 | 0.5 | 0.72
9 | Cn1c(=O)c2ncn(CC(=O)Nc3cc(C(F)(F)F)ccc3N3CCOCC3)c2n(C)c1=O | 2.3 | -3% | -1 | 0.6 | 4.2 | 0.0 | 0.66
10 | CCc1c(C)sc(NC(=O)c2ccoc2C)c1C(N)=O | · | · | -2 | 0.0 | 0.1 | -3.5 | ·
11 | CN(C)C(=O)CCc1nc2sc3c(c2c(=O)[nH]1)CCCC3 | -0.7 | 7% | -9 | 1.2 | 4.3 | -4.1 | 0.65
12 | CC(C)OC(=O)NC(C)(C)COC(=O)Nc1cccc(Cl)c1 | 3.9 | 7% | 1 | 0.3 | 1.3 | 0.8 | 0.65
13 | Fc1ccc(NC(=S)NN=C2CCCCCC2)cc1 | 3.9 | 0% | 1 | 0.1 | -3.0 | -0.5 | 0.7
14 | CC(=O)N(CCCN1CCOCC1)Cc1ccncc1 | 0.7 | -3% | -3 | 0.5 | -5.8 | 18 | 0.67
15 | CC(NS(=O)(=O)c1ccc(CCC(=O)NCc2cccnc2)cc1)c1ccccc1 (stereo unspecified) | 0.8 | -7% | 1 | 0.1 | 2.3 | 2.8 | 0.66
16 | NC(=O)c1cccnc1Nc1cccc(F)c1 | 1.6 | -7% | 11 | -0.4 | -2.9 | 0.7 | 0.7
17 | CCOc1ccc(CCNC(=O)CS(=O)(=O)Cc2nc(-c3cccc(OC)c3)oc2C)cc1 | 4.6 | · | 6 | -0.5 | -1.2 | 3.0 | 0.72
18 | CCC(C)(C)n1nnnc1C(c1ccccc1OC)N1CCN(C(=O)c2ccco2)CC1 (stereo unspecified) | 5.2 | 4% | -6 | 0.0 | 0.7 | 0.2 | 0.68
19 | CCOC(=O)c1c(NC(NC(C)=O)C(Cl)(Cl)Cl)sc(C(C)=O)c1C (stereo unspecified) | -2.7 | ? | 5 | 1.2 | -0.4 | 2.2 | 0.72
20 | O=C(N/N=C/c1c[nH]c2ccccc12)C1CC1c1ccccc1 (stereo unspecified) | · | · | 1 | 2.4 | -5.5 | 0.8 | ·
21 | Nc1ccc(C2(c3ccc(N)cc3)C(=O)Nc3ccccc32)cc1 | 3.4 | 16% | 4 | -0.1 | -0.8 | 0.0 | 0.67
22 | Cc1ccc(S(=O)(=O)N2CCCCC2)cc1NC(=O)CSc1ccc2c(c1)OCCO2 | 2.5 | · | -1 | 0.4 | 1.5 | 3.1 | 0.68
23 | O=C(NNCc1ccc(O)cc1)c1ccccc1Cl | -1.1 | · | -10 | -1.0 | -3.9 | -0.3 | 0.7
24 | Cc1c(C)n(Cc2ccc(F)cc2)c2ccc(C(=O)N3CCN(c4ccccn4)CC3)cc12 | -0.8 | 6% | -3 | -1.9 | 2.8 | -0.9 | 0.81
25 | CCOC(=O)CCC(=O)NCc1ccc2[nH]c(C)cc2c1 | 0.6 | 18% | 0 | 0.4 | -0.4 | 2.0 | 0.65
26 | CCCc1nc(SCc2cccnc2)c2c(=O)n(C)c(=O)n(C)c2n1 | 6.3 | 71% | -16 | -2.1 | 5.5 | 0.0 | 0.76
27 | CC(=O)Nc1c(Cl)cnn(-c2ccccc2)c1=O | 1.4 | · | 22 | -0.3 | -4.5 | 4.0 | 0.65
28 | CCS(=O)(=O)NC(C)C(c1cccs1)N1CCN(c2ccc(F)cc2)CC1 (stereo unspecified) | 2.6 | 1% | 3 | 0.0 | -0.4 | 2.7 | 0.79
29 | CCOc1ccccc1N(C(=O)c1ccccc1Cl)C1=NC(C)(C)CS1 | 4.8 | -5% | 2 | 0.7 | -2.2 | 4.2 | 0.68
30 | COC(=O)c1ccc(/C=C/c2c(-c3ccsc3)oc3ccc(N4CCOCC4)cc23)cc1 | · | · | -1 | 0.2 | 4.1 | -3.6 | ·
31 | COc1ccc(S(=O)(=O)N2CCCCCC2)cc1C(=O)N(C)CC(=O)Nc1ccc(Cl)c(Cl)c1 | 3.4 | 11% | 7 | -0.1 | -0.7 | -4.4 | 0.67
32 | COc1cccc(C(=O)CN2CCN(S(=O)(=O)c3cccc([N+](=O)[O-])c3)CC2)c1 | 2.5 | 1% | 3 | 0.2 | 7.9 | 2.7 | 0.69
33 | Cc1ccc(S(=O)(=O)N(C)CC(=O)O/N=C(\N)c2cccc([N+](=O)[O-])c2)cc1 | 1.1 | ? | 0 | 0.6 | 8.2 | 2.3 | 0.7
34 | O=C(O)CCCNS(=O)(=O)Cc1ccccc1 | -0.1 | · | -2 | -0.5 | -5.8 | 5.3 | 0.71
35 | COc1ccc(C(=O)NCc2c(CC(C)C)oc(C)c2C(=O)O)cc1 | 0.0 | -4% | -4 | 0.0 | -13 | 0.7 | 0.66
36 | CC(=O)c1sc(-c2ccccc2)nc1C | 5.2 | · | 5 | 0.1 | -5.5 | -6.3 | 0.65
37 | O=C(CN1CCCCCCC1)N/N=C/c1ccc(F)c(F)c1 | · | 3% | -2 | 1.2 | -5.2 | 2.2 | ·
38 | CCC(=O)Nc1cc(C)c(NC(=O)C23CC4CC(CC(C4)C2)C3)cn1 | 0.9 | 65% | -1 | -1.4 | -3.1 | 1.1 | 0.74
39 | COc1ccc2nc(NC(=S)N(C)C)sc2c1 | 7.7 | -4% | 9 | 0.9 | -6.9 | 3.5 | 0.65
40 | CCN(CC)CCCNc1cc(C(F)(F)F)c(C#N)c2nc3ccccc3n12 | -267 | 5% | -5 | 0.5 | 6.8 | -6.6 | 0.66
41 | O=C(Nc1ccc(F)cc1F)N1CCN(C(=O)c2ccco2)CC1 | 3.2 | 9% | 2 | 0.7 | 1.7 | 5.0 | 0.74
42 | C/C(=N\NC(=O)CC(C)C)c1ccc(Cl)c(Cl)c1 | · | 6% | 7 | 0.0 | 2.1 | 1.3 | ·
43 | COc1cccc(OC)c1C(=O)Nc1cccc(-c2ccc(N3CCOCC3)nn2)c1 | -0.3 | 0% | 11 | -2.1 | 0.4 | -1.2 | 0.64
44 | CCOc1ccccc1Cn1c(=O)oc2ccc(C)cc21 | 0.9 | -5%&2% | -3 | 1.2 | -1.4 | 2.3 | 0.7
45 | Cc1c(CCC(=O)O)c(=O)oc2cc(OCc3ccccc3F)ccc12 | -433 | 2% | 6 | -1.0 | 1.1 | 1.5 | 0.62
46 | COc1cc(OC)cc(C(=O)N2CCN(C(=O)c3cccs3)CC2)c1 | 2.7 | · | -5 | 0.1 | 1.5 | 4.3 | 0.7
47 | CCOc1ccccc1NC=C1C(=O)OC(C)(C)OC1=O | 9.0 | ? | -6 | 0.6 | -4.5 | -2.3 | 0.6
48 | CC(C)Oc1c(Br)cc(Br)cc1/C=N/NC(N)=S | · | ? | -11 | 0.2 | 3.5 | -0.4 | ·
49 | COc1cc(N=c2ssnc2Cl)cc(OC)c1 | 8.1 | 6% | 30 | -0.4 | 1.7 | 3.5 | 0.71
50 | COc1cc(OC)c(C2N(c3cc(C)on3)C(=O)C3CCCN32)cc1OC (stereo unspecified) | -0.4 | -3% | -14 | -0.3 | -3.6 | 4.7 | 0.68
51 | COC(=O)c1ccc(/C=C/c2ccc3cccc(OC(C)=O)c3n2)cc1 | -2.3 | ? | 2 | -7.5 | 1.5 | -0.1 | 0.73
52 | CCOc1ccccc1NC(=O)CSc1nnnn1C1CCCC1 | 2.8 | · | 9 | -0.5 | 2.0 | -0.1 | 0.67
53 | CCCCC(=O)Nc1ccnc(-c2cccnc2)n1 | 3.7 | 6% | 3 | 0.6 | 0.0 | -0.9 | 0.71
54 | Cc1ccc(Oc2ncccc2/C=N/OCc2ccc(Cl)c(Cl)c2)cc1 | · | -1% | 2 | 0.3 | 1.8 | 0.6 | ·
55 | CC(C)(C)C1CCC(C(=O)NCC(c2cccs2)N2CCOCC2)CC1 (stereo unspecified) | 1.7 | · | -3 | 0.4 | -3.0 | 0.5 | 0.65
56 | Cc1c(Br)c([N+](=O)[O-])nn1CC(=O)NCc1ccccc1 | 4.3 | · | -4 | 0.2 | 0.5 | -0.1 | 0.72
57 | COC(=O)C(NC(=O)C(NC(=O)C1CCC(C)CC1)C(C)C)C(C)C (stereo unspecified) | 2.9 | · | -6 | 0.7 | 4.9 | -2.0 | 0.66
58 | C/C(=N\Nc1nc(C)cc(=O)[nH]1)C1CC1 | · | · | 0 | -0.5 | -4.4 | -2.1 | ·
59 | COc1ccc(-c2nc3ccccc3c(=O)n2CCOc2c(C)cccc2C)cc1 | 5.6 | -27% | 3 | 0.2 | -3.9 | 0.6 | 0.75
60 | COc1ccc(Oc2ncnc3c2ncn3Cc2ccccc2)cc1 | -0.3 | 2% | -8 | 1.1 | -6.2 | 1.0 | 0.72

The list continues:
nr | SMILES | UCH37 DUB inh | Vif TR-FRET | Beta2AR agonist | Bfl-1 A1 inh | LANA-H2B inh | HNF4A DNA FP | Ecoli growth
61 | Cc1ccc(/C(O)=C2\C(=O)C(=O)N(C)C2c2cccc([N+](=O)[O-])c2)cc1 (stereo unspecified) | 13 | · | 2 | ? | -20 | -2.2 | 0.7
62 | Cn1c(Cn2nnc3ccccc32)nnc1SCC(=O)c1ccccc1F | 6.3 | -4% | -6 | -1.5 | -12 | -0.5 | 0.71
63 | CC(=O)Nc1ccc(C=NNC(=O)c2ccc(NS(=O)(=O)c3cccs3)cc2)cc1 | -2.8 | 3% | -11 | 0.0 | 4.5 | -3.0 | 0.74
64 | CCOC(=O)Cn1nnc(-c2cccc(OC)c2)n1 | 0.3 | 2% | 3 | -0.3 | -2.6 | 1.4 | 0.64
65 | Cc1ccc(C)c2[nH]c(=O)c(CCNC(=O)c3ccc(S(=O)(=O)N4CCOCC4)cc3)cc12 | 0.8 | 33% | -3 | 1.3 | 4.3 | 0.7 | 0.7
66 | CCN(CC)C(=O)C12CC3CC(CC(Br)(C3)C1)C2 | 4.9 | 3% | 1 | -0.2 | 3.6 | -6.6 | 0.7
67 | COc1cc(NC(=O)CSc2nc3cc(C)ccc3cc2C)c(C(=O)O)cc1OC | 2.8 | · | -1 | 1.8 | 1.0 | 1.7 | 0.65
68 | CCOC(=O)C1(Cc2ccccc2)CCCN(C(=O)c2cn[nH]c2)C1 (stereo unspecified) | 1.6 | · | 2 | 0.4 | -4.9 | 4.4 | 0.7
69 | O=C(CNC(=O)c1cccc(F)c1)N/N=C/c1cccs1 | · | 2% | 1 | 0.0 | 2.7 | -5.0 | ·

Source: PubChem
